hNpr1 antagonist: human Npr1 receptor antagonism. HEK293 hNpr1 GloSensor cGMP, ANP-stimulated luminescence. Potency, µM (doses to about 46.3 µM), for inactives: at the highest dose activity change, negative = inhibition, actives largely listed as inhibitors. 76,000 compounds, 1.6% hits. AID 1347048; active = well fitted inhibition curve with a large enough effect; inconclusive = small, poorly fitted or top-dose-only effect; inactive = no such curve, though single readings can be large or run the other way;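 also: nearly all actives have a fitted effect of over 60% in size; nearly all hits also lower the signal before the agonist is added; a reference antagonist and vehicle were the controls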
Target sequence (P16066 whole entry, looked up): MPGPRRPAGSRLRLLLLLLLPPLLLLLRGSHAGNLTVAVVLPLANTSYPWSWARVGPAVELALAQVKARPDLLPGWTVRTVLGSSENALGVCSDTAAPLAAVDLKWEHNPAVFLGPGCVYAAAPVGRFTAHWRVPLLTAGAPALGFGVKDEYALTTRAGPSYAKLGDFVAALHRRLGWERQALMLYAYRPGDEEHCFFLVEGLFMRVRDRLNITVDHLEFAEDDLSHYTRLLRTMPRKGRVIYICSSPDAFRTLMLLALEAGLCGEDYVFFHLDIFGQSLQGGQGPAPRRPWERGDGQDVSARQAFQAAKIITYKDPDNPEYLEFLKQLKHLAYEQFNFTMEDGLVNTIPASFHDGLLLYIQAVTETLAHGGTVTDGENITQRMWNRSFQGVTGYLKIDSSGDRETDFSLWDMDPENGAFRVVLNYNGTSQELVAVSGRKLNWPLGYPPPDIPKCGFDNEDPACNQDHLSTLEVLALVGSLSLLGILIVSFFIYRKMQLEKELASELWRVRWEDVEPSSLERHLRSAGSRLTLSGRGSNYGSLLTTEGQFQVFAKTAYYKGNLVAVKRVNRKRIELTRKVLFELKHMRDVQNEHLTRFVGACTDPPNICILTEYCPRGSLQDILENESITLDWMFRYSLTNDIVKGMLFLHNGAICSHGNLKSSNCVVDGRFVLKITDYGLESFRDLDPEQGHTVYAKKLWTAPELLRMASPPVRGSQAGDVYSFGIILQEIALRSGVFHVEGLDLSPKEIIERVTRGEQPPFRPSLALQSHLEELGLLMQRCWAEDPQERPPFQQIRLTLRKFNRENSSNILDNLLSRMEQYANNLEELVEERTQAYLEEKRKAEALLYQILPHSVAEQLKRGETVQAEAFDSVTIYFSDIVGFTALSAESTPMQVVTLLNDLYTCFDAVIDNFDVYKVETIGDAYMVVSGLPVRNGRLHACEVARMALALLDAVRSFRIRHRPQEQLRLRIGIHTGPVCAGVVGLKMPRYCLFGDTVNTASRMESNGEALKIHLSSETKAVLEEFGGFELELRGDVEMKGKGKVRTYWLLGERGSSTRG
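HEK293 cells stably expressing human Npr1 and cGMP GloSensor pGS-40F, loaded 2 h with 2% GloSensor reagent, given compound 30 min at room temperature. Luminescence read before and 20 min after 0.1 nM hNppA.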
The depositor's hits bear a star; ? = inconclusive; [ ] = remark or other dose. % is scaled to controls: 0 for no effect and ±100 for the full control effect; potency is read from the fitted curve at half-maximal effect.

SMILES	hNpr1 antagonist
Cc1cc2nc3n(c(=O)c2n1CC(=O)Nc1ccc2c(c1)OCO2)CCC3	1%
O=C(NC1CC1)c1ccccc1OC1CN(Cc2ccc(F)c(F)c2)C1	-1%
COc1ccc(OCC(=O)N2CCC3(CC2)N=C(c2ccc(C)cc2)NO3)cc1	-2%
CCOc1ccc2c(n1)CCN(C(=O)Nc1ccccc1C)C2	7%
O=C(CCn1cnc2ccccc21)N1CCn2nc(Cc3ccccc3)cc2C1	-25%
CCO[C@H]1CN(C(=O)c2ccccc2Cc2ccc(C)c(F)c2)C[C@@H]1O	-3%
Cc1nn(C)cc1-c1ccnc(NCCCN2CCCC(CO)C2)n1 (stereo unspecified)	5%
CN1CCCC1c1nc(C2CN(C(=O)c3cccn3C)C2)no1 (stereo unspecified)	7%
O=C(CC1=C2CCCCC2NC1=O)NC1CC1 (stereo unspecified)	-3%
Cc1cc(C)cc(C(=O)NCCc2noc(C)n2)c1	0%
COc1ccccc1C(=O)NC1CCCc2c1[nH]c1ccccc21 (stereo unspecified)	4%
COc1ccc(CNC(=O)CC[C@H]2CNC(=O)[C@@H]3[C@@H](CCN3Cc3ccc(C)cc3)N2C)cc1	1%
CC1CCN(C(=O)c2ccc3c(c2)C(O)CCCCCN3C)CC1 (stereo unspecified)	-6%
COCC(=O)N1CCN(S(=O)(=O)c2ccccc2)[C@@H](C(=O)OC)C1	-4%[70.6 µM]
CCn1ncc(C(=O)N2CCCCCCNC(=O)CC2)c1C	-1%
COc1ccccc1C(=O)N1CCCN(c2cc(-c3ccc(Cl)cc3)[nH]n2)CC1	?
COc1ccc(-c2ccc3ncc(Nc4cccc(O)c4)n3n2)cc1OC	-13%[70.6 µM]
O=C(CC1COCCN1)N1CCC2(CCC(=O)N(CCCn3ccnc3)C2)CC1 (stereo unspecified)	5%
Cc1ccc(Cl)cc1NC(=O)N1CCC(OC2CCN(S(C)(=O)=O)CC2)CC1	-14%
Cc1ccc(OCC(=O)NCC2CCCCC(=O)N2)cc1 (stereo unspecified)	4%
O=C(C1CCCC1)N1CCCC(c2noc(COc3ccccc3F)n2)C1 (stereo unspecified)	-22%
CC(C)Oc1ccc(CNC(=O)c2ccc(Cn3ccn4nc5c(c4c3=O)CCCC5)cc2)cc1	?
O=C(Cc1c[nH]c2ncc(-c3cccc(O)c3)cc12)N1CCOCC1	-27%[70.6 µM]
CC(C)CN(CCCNC(=O)C1CCN(c2cnn(C)c(=O)c2)C1)CC(C)C (stereo unspecified)	4%
CCNC(=O)CCc1c(C)nn(-c2ccc(F)cc2)c1Oc1ccc(F)cc1F	-1%
COCc1ncc(CN2CC[C@@H](c3ccc4ccccc4c3)[C@H](O)C2)cn1	-1%
COc1ccc(Cn2nc(-c3ccccc3)nc2C2CCC(=O)NC2)cc1 (stereo unspecified)	6%
CN1C(=O)c2ccc(NC(=O)Cn3nc4c(cc3=O)CCCC4)cc2C1=O	1%
CC(=O)N1CC(CO)C2(CCN(C(=O)c3ccccc3Cl)CC2)C1 (stereo unspecified)	-1%
Cc1cn(CC(=O)N2CC[C@@](C)(O)[C@@H](Cc3ccccc3)C2)c(=O)[nH]c1=O	5%
COc1ccc(-c2noc([C@@H]3Cc4nc[nH]c4CN3C(=O)Nc3ccc(Cl)cc3)n2)cc1	-25%
Cc1ccccc1CN1CC[C@@H]2OCC(=O)N(c3ccccc3)[C@H]2CC1	0%[70.6 µM]
COc1ccccc1CNC[C@H]1Cn2cc(-c3ccccc3OC)nc2CO1	-1%[70.6 µM]
CCCOC(=O)N1CCCC(C(=O)Nc2ccccc2-c2ccc(OC)cc2)C1 (stereo unspecified)	-14%
CN1CCN(C(=O)C2(C)CCCc3cnc(Nc4ccccc4)nc32)CC1 (stereo unspecified)	0%[70.6 µM]
COc1cccc(-c2ccnc3nc(Cc4cc(F)cc(F)c4)nn23)c1	-1%
Cc1cc(OCC(=O)O)c(C)c2c1CC[C@@H]([C@H](C)C(=O)NCc1ccccc1)C2	3%[70.6 µM]
COCc1noc([C@@H]2CN(Cc3cccc(C#N)c3)C[C@H]2COC)n1	0%
CCn1cc(CN2CCCC(c3nc(CCOc4cccc(C)c4)no3)C2)cn1 (stereo unspecified)	-21%
COc1ccc(-c2ccc3c(c2)C(=O)N2C[C@@H](NS(=O)(=O)c4ccc(F)cc4)C[C@H]2C(=O)N3)cc1	5%

Reformatted bar-delimited: part of the list above.
Molecule | hNpr1 antagonist
CC(=O)N1CC(CO)C2(CCN(C(=O)c3ccccc3Cl)CC2)C1 (stereo unspecified) | -1%
CN1C(=O)c2ccc(NC(=O)Cn3nc4c(cc3=O)CCCC4)cc2C1=O | 1%
COc1ccccc1C(=O)NC1CCCc2c1[nH]c1ccccc21 (stereo unspecified) | 4%
CN1CCN(C(=O)C2(C)CCCc3cnc(Nc4ccccc4)nc32)CC1 (stereo unspecified) | 0%[70.6 µM]

Going on with the list.
SMILES	hNpr1 antagonist
CCCOc1ccc(CNC(=O)[C@@]23CCCC[C@H]2N(CCOC)C(=O)CC3)cc1	3%
O=C1CC(c2ccccc2)N(C(=O)C2CC2)CCCCCCN1 (stereo unspecified)	4%
O=C(NCc1ccccc1)c1cnc2n1CCN(CCCc1ccccc1)CC2	-17%[70.6 µM]
CC(=O)c1c(C)nn(CCC(=O)N2CCC3(CC2)[C@H](O)C[C@@H]3O)c1C	-1%
Cn1ncc(N2CCC(C(=O)Nc3ccccc3CCc3ccccn3)C2)cc1=O (stereo unspecified)	1%
O=C(NCC1CCN(c2cc(-c3ccc(F)cc3)[nH]n2)CC1)c1ccc[nH]1	-12%
Cc1cccc(CN2CCNc3cc(Nc4cccnc4)ncc3C2)c1	0%[70.6 µM]
O=C(Cn1nc2c(cc1=O)CCCC2)NCCn1ccc2c(Cl)cccc21	-6%
CC1(C(=O)Nc2ccc(F)cc2)CN(Cc2ccccc2)Cc2ccc(N3CCOCC3)nc21 (stereo unspecified)	-22%
CCCOc1ccc(CNC(=O)CN2CC3CC(C2)[C@H]2CCCC(=O)N2C3)cc1 (stereo partly specified)	-2%
COc1ccccc1OCCNC(=O)c1cn2ccnc(-c3ccccc3)c2n1	-21%
CCc1n[nH]c(CC2CCN(C(=O)c3sc(C)nc3C)CC2)n1	-1%
CCOCCOC1CCN(S(=O)(=O)c2cccc(OC)c2)CC1	0%
O=C(NCCCc1nc2ccc(F)cc2[nH]1)C1NCCc2[nH]cnc21 (stereo unspecified)	4%
CN1Cc2ncnc(NCc3cccs3)c2CN(c2ccccc2)C1=O	5%
Cc1ccc(CNC(=O)c2ccc3c(c2)CN(C2CCC2)CCO3)cc1	-1%
O=C(NC1C[C@H]2CC[C@@H](C1)N2C(=O)C1CCC1)c1ccncc1 (stereo partly specified)	0%
O=C(c1cc(Br)cn2ccnc12)N1CCC(N2CCCCC2)CC1	5%
Cc1cn2nc(C(=O)NCc3cc(F)cc(F)c3)cc2c(N(C)Cc2ccccc2)n1	2%
CCN(C1CCOCC1)C1CN(C(=O)c2c(C)noc2C)C1	4%

Rewritten as comma-separated lines: entries from further up
mol,hNpr1 antagonist
CCOCCOC1CCN(S(=O)(=O)c2cccc(OC)c2)CC1,0%
O=C(NCCCc1nc2ccc(F)cc2[nH]1)C1NCCc2[nH]cnc21 (stereo unspecified),4%
CN1Cc2ncnc(NCc3cccs3)c2CN(c2ccccc2)C1=O,5%
Cc1ccc(CNC(=O)c2ccc3c(c2)CN(C2CCC2)CCO3)cc1,-1%
O=C(NC1C[C@H]2CC[C@@H](C1)N2C(=O)C1CCC1)c1ccncc1 (stereo partly specified),0%
O=C(c1cc(Br)cn2ccnc12)N1CCC(N2CCCCC2)CC1,5%
Cc1cn2nc(C(=O)NCc3cc(F)cc(F)c3)cc2c(N(C)Cc2ccccc2)n1,2%

(more compounds)
SMILES	hNpr1 antagonist
C=CCNc1nc(C)nc2c1CCN(C(=O)CNS(C)(=O)=O)CC2	1%
CCOC(=O)CNC(=O)c1cc(-c2ccc[nH]2)n[nH]1	-3%
COc1ccc(CC(=O)N2CCc3c(nc4cc(-c5ccccc5Cl)[nH]n4c3=O)C2)cc1	-10%
CSc1nccc(N2CCC(c3nccn3Cc3cccnc3)CC2)n1	?
Cc1noc(C)c1-c1cc2cc(C(C)C)oc2c(NCCN2CCOCC2)n1	3%[70.6 µM]
COc1ccc(C(=O)N2CCC3(CC2)CNC(=O)c2ccccc2O3)cc1	2%
CCC(c1nc(-c2ccc(C)nn2)no1)n1cccn1 (stereo unspecified)	-1%
COCCC(=O)NCC1Cn2cccc2C(=O)N1Cc1ccccc1 (stereo unspecified)	-9%
COc1ccc(CN2C(=O)CO[C@H]3CN(c4nccc(C)n4)C[C@H]32)cc1	3%[70.6 µM]
Cc1ccsc1-c1[nH]nc2ncc(-c3cccc(F)c3)nc12	-5%[70.6 µM]
O=C(Nc1cccc(F)c1)N1CCc2c(c3ccccc3n2CC2CC2)C1	-16%
COC(=O)CN1C(=O)[C@@H]2C[C@@H](O)CN2C2(CN(Cc3ccc(OC)c4ccccc34)C2)C1=O	4%
Cc1cc(N2CCC3(CC2)CC(c2ccccc2)C(=O)N(C2CC2)C3)nc(N)n1 (stereo unspecified)	2%
Cc1nc2c(OCC(=O)OC(C)(C)C)cccn2c(=O)c1-c1cc(C)n(-c2ccc(Cl)cc2)n1	-2%
COc1cccc(C(=O)N2C[C@@H](CO)[C@H](c3nc(C)no3)C2)c1OC	-3%
CCC(NC(=O)C1CCCN(c2cnc3nccnc3c2)C1)c1ccc(OC)cc1 (stereo unspecified)	0%
CCOc1ccc(-c2cc3c(=O)n(CCNC(=O)c4ccc[nH]4)ccn3n2)cc1	-2%
CN(Cc1cccnc1)c1nc2c(c(=O)[nH]1)CCN(CC1CCCCC1)CC2	11%
O[C@@H]1C[C@@H](c2nc(-c3ccncc3)no2)N(C2CCCCC2)C1	6%[70.6 µM]
CC(C)CN(Cc1cccnc1)C1CN(C(=O)NCc2ccc(F)cc2)C1	-2%
Fc1ccc(-c2noc([C@@H]3Cc4nc[nH]c4CN3Cc3ccccc3)n2)cc1Cl	-26%[70.6 µM]
Cc1cc(C(=O)Nc2ccc([C@H]3OCC(=O)N(CC(=O)N(C)C)[C@@H]3CO)cc2)n(C)n1	7%[70.6 µM]
COc1ccc(NC(=O)c2ccc3c(c2)n(C)c(=O)c2ccnn23)cc1OC	-1%
CC(C)CC(=O)N1CC(c2nnc(-c3ccncc3)o2)C2(CCOCC2)C1 (stereo unspecified)	2%
CCOc1cccc(-c2nc(C3CCOC3)no2)c1 (stereo unspecified)	1%
CS(=O)(=O)c1ccc(CC(=O)N[C@H](c2ccccn2)C2CC(O)C2)cc1 (stereo partly specified)	-18%
Cc1ccccc1CC(=O)NC1CCCN(c2cc(N(C)C)ncn2)C1 (stereo unspecified)	1%
COCCn1c(=O)c2c(n1Cc1ccccc1)CN(Cc1cccnc1OC)CC2	-2%[70.6 µM]
COc1ccc(C(=O)N2CCC(n3nccc3NC(=O)CC(C)C)CC2)cc1OC	6%
CCO[C@H]1CN(Cc2cnc(-c3cccs3)nc2)C[C@@H]1O	-2%
O=C(c1coc(COc2ccc(F)cc2Cl)n1)N1CCCCO1	-17%
Cc1nn(C)cc1CN1CC2(CCN(C(=O)C3CC3)CC2)CC1C(=O)O (stereo unspecified)	1%
CC1CCc2nn3ccn(CC(=O)Nc4ccc5c(c4)OCO5)c(=O)c3c2C1 (stereo unspecified)	0%
NC(=O)c1ccc(NC(=O)C2CC(=O)N(c3n[nH]c4ccccc34)C2)cc1 (stereo unspecified)	2%
O=C1[C@@H]2C[C@@H](CN2C(=O)c2ccc(F)cc2)Oc2ccccc2N1Cc1ccc(OC(F)(F)F)cc1	-12%
CN(C)c1ccc(CN2CC[C@H](c3nc4c(C(N)=O)cccc4[nH]3)C2)cc1	?
CCC(=O)N1CCN(c2nc3c(s2)CN(C(=O)CC)CC3)CC1	-3%
O=C(c1ccc2cc[nH]c2c1)N1CCC2(CC1)N=C(c1ccccc1)NO2	-20%
Cc1cccc(NC(=O)N2CCCCC2c2noc(COCC3CC3)n2)c1 (stereo unspecified)	-1%
COc1ccc(NC(=O)Nc2cccc(-c3ccc(N4CCOCC4)nn3)c2)cc1	10µM*

Given in markdown: part of the list above.
| compound | hNpr1 antagonist |
| --- | --- |
| CCO[C@H]1CN(Cc2cnc(-c3cccs3)nc2)C[C@@H]1O | -2% |
| O=C(c1coc(COc2ccc(F)cc2Cl)n1)N1CCCCO1 | -17% |

Further entries follow.
SMILES	hNpr1 antagonist
COc1cc(-c2cc3c(nc2-c2ccccc2)nc(C(=O)NC2CCN(C)CC2)n3C)ccn1	-8%
Cc1cccc(-c2ocnc2C(=O)N2C[C@@H](Oc3ccccc3)C[C@H]2C(=O)N2CCCC2)c1	3%
CC1=C[C@@H](CNC(=O)c2ccc(C#N)cc2)[C@H](C(C)C)C[C@H]1CC(=O)NCCN(C)C	-1%[70.6 µM]
COCCOC1CCN(S(=O)(=O)c2cccc(OC)c2)CC1	-3%
Cn1nccc1-c1ccc2ncn(-c3ccccc3)c(=O)c2n1	-2%[70.6 µM]
c1cnc2c(-n3nc(C4CCOCC4)nc3C3CC3)cccc2c1	-19%
CN(Cc1cccc(C(=O)Nc2cccc(C#N)c2)c1)CC1COCCO1 (stereo unspecified)	?
Cn1cccc1C(=O)N1CC[C@H](NC(=O)Nc2ccc(F)cc2F)[C@H]1C(=O)N[C@H](Cc1ccccc1)C(N)=O	3%
COc1cccc(-c2nc3cc4c(cc3cc2CN2CCOCC2)OCO4)c1OC	4%
CCN(CC)C(=O)[C@@H]1CCCN1[C@@H](C(=O)NC)C1CC1	0%[70.6 µM]
CC(c1cccs1)N(C)[S+](=O)([O-])c1cccc(C(F)(F)F)c1 (stereo unspecified)	16%
CC1(C)CC(=O)C=C(C(=O)N2CCCC(N3CCN(c4ccccc4F)CC3)C2)O1 (stereo unspecified)	10%
Cc1ccc(-c2cc3c(ccn3CC3CCN([S+](C)(=O)[O-])CC3)c(N3CCOCC3)n2)cn1	-10%

Compound activity deposited in PubChem BioAssay by National Center for Advancing Translational Sciences (NCATS).

The list is partial; the hit share may differ from the screen's.
